RN4220 kill – kills Staphylococcus aureus RN4220; AID 1259311; hit rate 0.33% among 330,000; S. aureus RN4220 growth, OD600, 16 h; inhibition, % (concentration not given with the values);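 active = z-score of -3 or lower and OD600 up to 0.18 on both plates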;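 note: plate controls were untreated cells for no effect and reference antibiotic for full effect; stock transfer was 100 nL into about 80 µL; one replicate is shown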
Sa ugtP lethal – kills S. aureus RN4220 lacking UgtP; growth inhibition, % (test concentration not listed); hit rate 0.54% among 330,000; S. aureus RN4220 ugtP deletion, OD600 growth, 16 h; some inactives read as strong as hits;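 active = z-score under -3 and OD600 up to 0.15 on both plates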;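 note: plate controls were untreated wells for no effect and antibiotic for full effect; wells of about 80 µL received 100 nL stock; the first replicate is given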
Autofluor counter – counter-screen for toxin protease inhibitors: compound fluorescence; hit rate 3.1% among 360,000; fluorescence intensity (concentration not given with the values); compound autofluorescence counterscreen, microsphere flow cytometry; active compounds read high;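 active = at least 3 SD above the mean of all compounds, about 16000 in these data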;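 note: 100 nL of 1 mM stock went into each well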
BJeLR viability – kills HRASV12-expressing BJeLR cells | BJeLR (HRASV12) viability, CellTiter-Glo ATP luminescence, 48 h; reference of the scale not given here | hit rate 0.17% among 300,000 | inhibition, % (concentration not given with the values);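 active = replicate mean above 50%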;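 note: 50 nL library stock added to about 25 µL; numbers are from one replicate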
PrP UTR inh – suppresses PrP 5' UTR mRNA reporter expression; cell-based PrP 5' UTR mRNA reporter, plate reader; inhibition, % (no concentration beside the values); hit rate 0.35% among 340,000;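 active = every replicate at 50% or more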;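 note: 0 = median of the neutral control wells; tested in H4 reporter cells; numbers are from one replicate; inactives centre near -14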
Mtb hypoxia inh – Mtb hypoxia fluorescent reporter inhibition. fluorescence inhibition, % (no concentration beside the values). hit rate 0.1% among 300,000. M. tuberculosis hypoxia-regulated fluorescent reporter, fluorescence;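 active = 35 to 45% if threefold the growth effect, above 45% if 1.5-fold the growth effect; inactive = the rest, general growth blockers included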;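 note: wells of about 50 µL received 100 nL stock; 0% = vehicle wells and 100% = reference inhibitor wells; whole bacteria with a GFP reporter of the hypoxia response; strong numbers were not always called active; many hits fall short of the cut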
Mtb hypoxia inh growth – further read-out of Mtb hypoxia inh, marked with its call; growth inhibition, %; measured here: M. tuberculosis growth (absorbance);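 0% = vehicle and 100% = reference antibiotic; read after six days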
The depositor's hits bear a star; nt = no result given. Compounds were not picked by outcome. Share with any hit: about 4.1%.

SMILES	RN4220 kill	Sa ugtP lethal	Autofluor counter	BJeLR viability	PrP UTR inh	Mtb hypoxia inh	Mtb hypoxia inh growth
O=C(N/N=C/c1ccc(OC(=O)c2cccs2)cc1)c1cccc(F)c1	nt	nt	11454	-2	-45	nt	nt
O=C(NC(=S)Nc1ccccc1Br)c1cccnc1	2.0	49	3781	-8	-27	6	1
O=C(Nc1ccc2c(c1)ncn2C1CCCCC1)c1ccco1	5.4	-5	4014	-5	-47	6	14
CC1=C(C(=O)OCCOC(C)C)C(c2cccc3ccccc23)NC(=O)N1 (stereo not given)	4.2	13	3727	-13	-23	-1	1
CCOc1ccc(C(=O)OCC(=O)N2CCCC2)cc1OCC	1.1	9	3649	2	-29	5	-3
CCC/C(O)=C1\C(=O)CC(c2ccccc2)CC1=NCCc1c(C)[nH]c2ccc(C)cc12 (stereo not given)	nt	nt	6670	-5	-21	nt	nt
O=c1c2ccccc2oc2cc(NCCCN3CCOCC3)ccc12	1.9	-2	3728	-13	-47	7	9
Cc1ccc(C(=O)CCC(=O)Nc2cccnc2)cc1C	0.0	-9	4075	1	-5	5	8
Cc1ccc(S(=O)(=O)N[C@H](C(=O)OCC(=O)NC(=O)C2CCCCC2)C(C)C)cc1	4.1	3	3506	nt	-20	12	5
Cc1ccccc1NS(=O)(=O)c1ccc(C(=O)N2CCCC2)cc1	nt	nt	5879	-9	-14	nt	nt
Cc1onc(-c2c(Cl)cccc2Cl)c1C(=O)Nc1ccc(N2CCOCC2)cc1	1.8	12	3504	-7	-48	19	14
Cc1cc(N2CCCCC2)nc2c(C)cccc12	3.5	27	5466	-2	-26	3	10
CC1CCCCN1C(=O)CCNC(=O)Cn1cnc2ccccc2c1=O (stereo not given)	0.2	9	5006	2	-18	2	5
Cc1cc(C)c2nc(SCC(=O)NC(=O)c3cccn3C)cc(C)c2c1	6.6	2	5681	14	-14	15	2
CCOc1ccc(C(C)=O)cc1Cc1c(O)nc(N)[nH]c1=O	3.5	7	nt	-11	nt	1	10

Look-ups from the entries so far.
In RN4220 kill, Cc1ccc(S(=O)(=O)N[C@H](C(=O)OCC(=O)NC(=O)C2CCCCC2)C(C)C)cc1 reads 4.1
In Sa ugtP lethal, O=C(NC(=S)Nc1ccccc1Br)c1cccnc1 reads 49

(continued)
SMILES	RN4220 kill	Sa ugtP lethal	Autofluor counter	BJeLR viability	PrP UTR inh	Mtb hypoxia inh	Mtb hypoxia inh growth
O=C(N=Nc1c(O)[nH]c2ccccc12)c1ccccc1NS(=O)(=O)c1cccs1	2.5	-7	1986	-2	4	4	0
COc1cccc(/C(C)=N/Nc2ncc(Cl)cc2Cl)c1	nt	nt	1956	-1	-15	nt	nt
COc1cc(OC)c(C(=O)Nc2ccc3ccccc3c2)cc1OC	-4.5	6	4340	5	-50	9	19
Cc1n[nH]c(C)c1S(=O)(=O)N1CCN(S(=O)(=O)c2ccccc2C#N)CC1	0.7	0	4505	nt	nt	1	-1
CC(C)(C)c1ccc(C(=O)NCc2ccccc2)cc1	2.3	5	4173	0	-74	-8	8
CC(=O)c1cc(-c2ccccc2)n(CC(=O)Nc2cccc(C)c2C)c1C	0.7	7	2457	-2	-22	5	4
CN(C)c1ccc(-n2cccc2/C=C2/SC(=Nc3ccc(F)cc3)NC2=O)cc1	11	-10	6726	-10	-13	6	-6
Cc1cccc(C(=O)Nc2ccc(N3CCN(S(C)(=O)=O)CC3)cc2)c1	-1.7	-3	4459	4	-23	-7	11
O=C1CN(S(=O)(=O)c2ccccc2)CCN1S(=O)(=O)c1ccccc1	5.2	7	2401	-8	-13	10	5
O=c1c2ccccc2n2c(-c3ccc(F)cc3)nnc2n1Cc1ccccc1	5.2	-1	2058	12	-8	6	4
C/C(=N\NC(=O)c1nnn(-c2nonc2N)c1CN1CCCCCC1)c1ccc(Br)cc1	nt	nt	4289	15	-34	nt	nt
COc1ccc([C@@H]2[C@@H]3C(=O)N(C(C)(C)C)C(=O)[C@@H]3[C@]3(C)C(=O)N(c4ccccc4)C(=O)N23)cc1	nt	nt	2858	6	2	nt	nt
O=C(O)c1cccc(S(=O)(=O)Nc2ccc(O)cc2Sc2nc3ccccc3s2)c1	5.3	0	2036	2	-22	-7	2
Cc1ccc(NC(=O)CN(c2cc(C)cc(C)c2)S(=O)(=O)c2c(C)noc2C)nc1	9.8	-9	5412	2	-10	nt	nt
O=C1NC(=S)N(c2ccccc2F)C(=O)/C1=C\c1cccs1	nt	nt	9279	1	-20	nt	nt
Cc1ccc(N2CC(C(=O)Nc3cccnc3)CC2=O)cc1 (stereo not given)	2.9	4	23113*	0	-27	-2	4
O=C(Nc1ccc(S(=O)(=O)NCCc2ccccc2)cc1)c1ccncc1	1.6	9	4361	-2	-15	-13	3
CN1C(=O)CC(C(=O)O)SC1=Nc1cccc(C(F)(F)F)c1 (stereo not given)	5.5	1	6040	-1	-34	4	19
Cn1nc(C(C)(C)C)c([N+](=O)[O-])c1C(=O)NC(C)(C)C	8.6	20	6401	2	-17	0	-2
c1ccc(-c2nc3ccccc3nc2N2CCOCC2)cc1	1.2	12	2786	-3	-21	nt	nt
CN(C)S(=O)(=O)c1cccc(NC(=O)c2cc(-c3cccs3)nc3ccccc23)c1	5.6	4	9679	-6	-33	-3	7
CCCCCn1c(CCNC(=O)CCC)nc2ccccc21	-2.4	-12	6456	-9	-16	-5	0
COc1ccc2c(c1)CCCC21NC(=O)N(CC(N)=O)C1=O (stereo not given)	1.3	3	9858	2	nt	12	5
O=C(c1ccco1)N1CCN(Cc2nc3ccccc3[nH]2)CC1	-0.4	-5	5596	nt	-6	1	9
Nc1c(C(=O)NCC2CCCO2)c2nc3ccccc3nc2n1N=Cc1ccncc1 (stereo not given)	6.5	1	nt	nt	nt	11	6
CCOc1ccc(N(C(=O)Nc2ccccc2)C2=NCCC2)cc1	11	74	7595	1	-7	0	4
CCOC(=O)[C@]12Cc3ccccc3C1N(Cc1ccccc1)C(=O)c1ccccc12 (stereo not given in full)	5.9	15	nt	nt	nt	8	12
COc1ccccc1NC(=O)/C(C#N)=C/c1c(C)nn(-c2ccc(F)cc2)c1Cl	nt	nt	2132	-4	-18	nt	nt
Cc1cc(NC(=O)c2cc3n(n2)C(C(F)(F)F)CC(c2ccco2)N3)n(-c2ccccc2)n1 (stereo not given)	-6.9	-20	2882	11	-7	7	12
Cc1ccc(C(=O)COC(=O)CN2C(=O)C3CC=CCC3C2=O)cc1[N+](=O)[O-] (stereo not given)	3.0	11	nt	19	-7	12	-3

The last 4 compounds of the part above come first, to join the parts:
SMILES	RN4220 kill	Sa ugtP lethal	Autofluor counter	BJeLR viability	PrP UTR inh	Mtb hypoxia inh	Mtb hypoxia inh growth
CCOC(=O)[C@]12Cc3ccccc3C1N(Cc1ccccc1)C(=O)c1ccccc12 (stereo not given in full)	5.9	15	nt	nt	nt	8	12
COc1ccccc1NC(=O)/C(C#N)=C/c1c(C)nn(-c2ccc(F)cc2)c1Cl	nt	nt	2132	-4	-18	nt	nt
Cc1cc(NC(=O)c2cc3n(n2)C(C(F)(F)F)CC(c2ccco2)N3)n(-c2ccccc2)n1 (stereo not given)	-6.9	-20	2882	11	-7	7	12
Cc1ccc(C(=O)COC(=O)CN2C(=O)C3CC=CCC3C2=O)cc1[N+](=O)[O-] (stereo not given)	3.0	11	nt	19	-7	12	-3
CCOc1cc(/C=N/NC(=S)Nc2ccccc2C(F)(F)F)ccc1OCC(=O)N1CCOCC1	nt	nt	2085	-11	4	nt	nt
CC(C)(C)OC(=O)N1CCCC(C(=O)Nc2ccc(C(=O)N3CCOCC3)cc2)C1 (stereo not given)	-0.6	-2	4088	nt	-22	-4	-6
COc1ccccc1C(=O)Nc1cccc(Oc2c(F)c(F)c(F)c(F)c2F)c1	5.9	-1	nt	1	-14	8	19
O=C(Nc1ccccn1)c1ccco1	4.3	7	5381	2	-44	10	23
CCN(CC(=O)Nc1ccc(NC(C)=O)cc1)C(=O)c1cccc(Oc2ccccc2)c1	4.4	5	nt	1	-14	3	-5
COc1ccc(-c2cc(C(=O)Nc3ccc(S(=O)(=O)Nc4ncccn4)cc3)c3ccccc3n2)cc1	-1.2	2	6381	-10	-13	nt	nt
O=C(Cn1c(=O)cnc2ccccc21)Nc1cc(Cl)ccc1N1CCOCC1	0.8	-4	5062	nt	-2	2	1
COc1ccc(NC(=O)C2CC(=O)N(c3ccccc3Cl)C2)c(OC)c1 (stereo not given)	-1.3	2	4489	-4	-9	-7	-2
COC(=O)c1cc(S(=O)(=O)Nc2cccc(OC)c2)cn1C	4.7	-8	4962	1	-24	6	2
CN(C(=O)CCN1C(=O)S/C(=C\c2ccccc2)C1=O)C1CCS(=O)(=O)C1 (stereo not given)	1.8	3	5606	6	-24	11	2
NC(=O)c1ccc[n+](Cc2ccc(-c3ccccc3)cc2)c1	-3.7	7	3740	-5	-2	5	5
C=CCOc1ccc(C2C(C(=O)c3ccc(C)o3)=C(O)C(=O)N2Cc2cccnc2)cc1 (stereo not given)	6.6	12	6524	-6	-3	-13	-9
CCn1c(SCC(=O)N2CCCc3ccccc32)nnc1-c1cccs1	2.3	3	16895*	0	-7	5	8
COc1ccc(-c2cc(C(F)(F)F)n3nc(C(=O)N4CCOCC4)c(Cl)c3n2)cc1	1.1	33	2735	-6	-18	nt	nt
CN(CCn1ccnc1)Cc1cn(-c2ccccc2)nc1-c1ccc2c(c1)OCO2	4.5	2	4684	1	-7	18	11
Cc1cc([N+](=O)[O-])nn1CC(=O)N1CCCc2ccccc21	2.0	4	1930	10	-18	7	4
COc1cccc(N2C(CC(=O)O)c3cc(C(F)(F)F)ccc3S2(=O)=O)c1 (stereo not given)	6.9	4	nt	nt	nt	20	12
O=C(O)COc1ccc2oc3c(c2c1)CCCC3	3.9	6	2826	2	-8	19	3
O=c1[nH]c2cccnc2n1Cc1ccccc1	-16	-8	2873	-1	-20	13	3
Cc1cc(OCc2cn3cccnc3n2)ccc1Cl	3.1	-2	2522	0	-56	-8	6
CC1(C)C2CCC1(C)C(OC(=O)c1ccc(O)cc1)C2 (stereo not given)	16	22	5816	-5	4	nt	nt
Brc1ccc(C2=CC(c3ccco3)n3ncnc3N2)cc1 (stereo not given)	nt	nt	9352	-3	-18	nt	nt
O=C(Nc1nc2c(s1)CCCC2=O)c1cnccn1	2.5	-4	23908*	1	-51	7	10
CCOc1ccc(CCNC(=O)CCc2nc(-c3ccc(C)cc3)no2)cc1OCC	8.8	-2	2150	4	-4	nt	nt
CN(C)S(=O)(=O)c1ccc(NC(=O)CNc2cc(S(=O)(=O)N3CCCC3)ccc2OCC(F)(F)F)cc1	6.1	-3	8860	-5	-9	5	6
CCC1CCCCN1C(=S)NCc1ccccc1 (stereo not given)	5.5	-3	2545	4	-4	15	3
CC1(C)CC(NC(=O)CSc2ccccc2)CC(C)(C)N1	2.2	6	2513	-5	-11	-10	13
O=Cc1cn[nH]c1-c1cccc([N+](=O)[O-])c1	1.9	7	2996	-3	6	11	-7
COc1ccc(S(=O)(=O)CCC(=O)NC2CCCCC2)cc1	3.3	-1	4997	-9	-13	nt	nt
O=C(CN1CCN(Cc2ccccc2)CC1)Nc1ccc(S(=O)(=O)N2CCOCC2)cc1	7.5	2	2488	-10	-13	10	5
CCN(CC)CCNC(=O)c1cc(-c2ccco2)nc2ccccc12	1.8	11	4514	-2	-4	16	21
COc1ccc(S(=O)(=O)CC2(O)CCN(C(=O)C(C)(C)C)CC2)cc1	-0.5	2	5122	2	1	14	11
Cc1ccc(N(CC(=O)N2CCn3c2nc2ccccc23)S(=O)(=O)c2c(C)n[nH]c2C)cc1	2.2	6	17135*	-6	13	0	2
O=C(Cn1cnc2c(nnn2Cc2ccccc2F)c1=O)OCc1ccccc1	0.2	10	10111	-11	nt	-12	-10
O=C(NN=Cc1ccc(N2CCOCC2)cc1)c1ccccn1	1.9	-3	nt	nt	nt	8	-1
COc1ccc(C=NN(C)C2=NS(=O)(=O)c3ccccc32)cc1	9.3	6	nt	nt	nt	17	8
CC(=O)Nc1ccc(C=NNS(=O)(=O)c2cc(C)ccc2C)cc1	4.7	0	nt	nt	nt	12	-2
O=C(c1cccc(Br)c1)c1cn(-c2ccccc2)nc1C(=O)c1ccccc1	0.3	9	24853*	-7	1	10	0
O=C(NC(=S)Nc1ccc(N2CCOCC2)cc1)c1ccccc1	4.1	46	3766	-5	-31	6	7
CC(=O)Nc1ccc(S(=O)(=O)N[C@@H](C)C(=O)OCc2ccc(Cl)cc2)cc1	0.7	0	9843	2	-21	5	11
